Bioassay records (PubChem)
BJeLR viability = kills HRASV12-expressing BJeLR cells | BJeLR (HRASV12) viability, CellTiter-Glo ATP luminescence, 48 h; reference of the scale not given here | inhibition, % (no concentration beside the values) | 300,000 compounds, 0.17% hits;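 active means replicate mean above 50%; inconclusive means above 50% but judged a plate artefact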;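 further: 50 nL library stock added to about 25 µL; numbers are from one replicate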
RN4220 kill = kills Staphylococcus aureus RN4220 | 330,000 compounds, 0.33% hits | AID 1259311 | inhibition, % (test concentration not listed) | S. aureus RN4220 growth, OD600, 16 h;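 active means z-score of -3 or lower and OD600 up to 0.18 on both plates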;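 further: plate controls were untreated cells for no effect and reference antibiotic for full effect; stock transfer was 100 nL into about 80 µL; one replicate is shown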
Bead autofluor = counter-screen for toxin protease inhibitors: compound fluorescence; AID 624483; compound autofluorescence counterscreen, microsphere flow cytometry; hits give high values; 360,000 compounds, 3.1% hits; fluorescence intensity (test concentration not listed);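 active means at least 3 SD above the mean of all compounds, about 16000 in these data; inconclusive means too few beads counted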;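 further: 100 nL of 1 mM stock went into each well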
ugtP null kill = kills S. aureus RN4220 lacking UgtP; S. aureus RN4220 ugtP deletion, OD600 growth, 16 h; some inactives read as strong as hits; growth inhibition, % (concentration not given with the values); 330,000 compounds, 0.54% hits;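 active means z-score under -3 and OD600 up to 0.15 on both plates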;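 further: plate controls were untreated wells for no effect and antibiotic for full effect; wells of about 80 µL received 100 nL stock; the first replicate is given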
PrP 5UTR inh = suppresses PrP 5' UTR mRNA reporter expression. cell-based PrP 5' UTR mRNA reporter, plate reader. inhibition, % (concentration not given with the values). 340,000 compounds, 0.35% hits;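 active means every replicate at 50% or more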;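 further: 0 = median of the neutral control wells; tested in H4 reporter cells; numbers are from one replicate; inactives centre near -14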
Mtb hypoxia inh = Mtb hypoxia fluorescent reporter inhibition; fluorescence inhibition, % (test concentration not listed); M. tuberculosis hypoxia-regulated fluorescent reporter, fluorescence; 300,000 compounds, 0.1% hits;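 active means 35 to 45% if threefold the growth effect, above 45% if 1.5-fold the growth effect; inactive means the rest, general growth blockers included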;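 further: wells of about 50 µL received 100 nL stock; 0% = vehicle wells and 100% = reference inhibitor wells; whole bacteria with a GFP reporter of the hypoxia response; strong numbers were not always called active; many hits fall short of the cut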
Mtb hypoxia inh growth = further read-out of Mtb hypoxia inh, marked with its call; growth inhibition, %; measured here: M. tuberculosis growth (absorbance);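 0% = vehicle and 100% = reference antibiotic; read after six days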
* marks the source's active call; other numbers are inactive results; u = inconclusive; x = not tested or not shown. Rows were taken by chance; 4% or so of the library scored in one or more.

SMILES	BJeLR viability	RN4220 kill	Bead autofluor	ugtP null kill	PrP 5UTR inh	Mtb hypoxia inh	Mtb hypoxia inh growth
Cc1cccc(-n2nnc(C(=O)NCc3ccc4c(c3)OCO4)c2N)c1	-15	2.6	3071	8	-14	4	3
Nn1c(SCC(=O)Nc2ccccc2F)nnc1-c1cccs1	3	0.9	6413	4	-4	5	-3
Cc1ccccc1C(=O)NC(CC(C)C)C(=O)Nc1ccc(F)c([N+](=O)[O-])c1 (configuration not stated)	11	-0.6	1937	-3	-24	4	6
COC(=O)c1ccccc1NC(=O)CSc1nnc(-c2ccc(C)cc2)o1	-1	6.7	x	2	x	-8	-4
COCc1nnc(NC(=O)CS(=O)(=O)c2ccc(C)cc2)s1	-1	0.6	3894	4	-10	12	11
COc1ccc(N2CCN(C(=O)CSc3ncn[nH]3)CC2)cc1	3	0.0	u	2	-6	12	8
CCOC(=O)Cc1cn2c(=O)cc(CSCC(=O)Nc3ccc(C)c(C)c3)nc2s1	-9	2.4	4448	-3	-5	-6	3
O=C(NCc1cccs1)c1cc(-c2ccncc2)nc2ccc(Br)cc12	-4	-8.4	x	-5	x	10	-1
NC(=O)CC(NC(=O)Cc1cccc2ccccc12)c1ccc(N2CCN(c3ccc(F)cc3)CC2)c([N+](=O)[O-])c1 (configuration not stated)	-6	-10	3622	-9	-8	6	5
COc1ccc(C=NNc2nncc3ccccc23)cc1	x	5.4	x	5	x	11	-8
O=C(CCN1C(=O)c2ccccc2S1(=O)=O)N1CCN(c2cccc(Cl)c2)CC1	-5	2.5	6767	2	-28	1	-8
CCCCn1c(O)c(C(C)=Nc2c(C)n(C)n(-c3ccccc3)c2=O)c(=O)[nH]c1=O	1	-5.9	3472	11	-25	x	x
O=C(CSc1nnc(CNc2ccc(F)cc2)o1)OC1CCCCC1	-5	10	3302	14	-8	3	8
CC1=C(C(=O)OCc2ccccc2)C(c2ccccc2)NC(=O)N1 (configuration not stated)	31	5.7	3473	-1	-29	7	4
O=C(N/N=C/c1ccc(O)c2ncccc12)c1cccc(Br)c1	13	x	4397	x	13	x	x
Cc1cc(N2CCN(c3ccccc3)CC2)n2c(n1)nc1ccccc12	-12	0.3	23762*	23	-5	3	9
Cc1c(-c2cc(C(=O)O)no2)cnn1C	-4	5.4	4805	8	-24	16	-1
CCOC(=O)c1c(N=CC2C(=O)CCCC2=O)sc2c1CCCC2	x	7.7	x	0	x	9	8
NC(=O)NN=Cc1ccccc1OCC(=O)NCc1ccccc1	x	5.8	x	0	x	7	2
CC(=O)c1ccc(N2CCN(C(=O)c3cc(C)on3)CC2)cc1	3	-0.5	14749	-1	-2	-9	11
Cc1ccc(S(=O)(=O)N(C)C)cc1NC(=S)NCCCn1ccnc1	x	-0.3	4546	5	-37	5	5
Cc1ccc(NS(=O)(=O)c2cccc(C(=O)O)c2)c(C)c1	0	4.1	7495	3	-3	7	6
Cc1ccc(-c2nc(=O)[nH]c3ccc(Br)cc23)cc1	-9	4.3	4131	3	-12	5	1
COC(=O)c1ccc(/C=C2/C(=O)Oc3ccccc32)cc1	-14	7.3	3026	-7	-22	12	1
COc1ccc(C(=O)c2cc([N+](=O)[O-])ccc2N2CCN(C)CC2)cc1	24	-1.0	1968	-7	-10	-12	0
CCn1cc(C(=O)OCC(=O)OC2CC(C)CCC2C(C)C)c(=O)c2ccc(C)nc21 (configuration not stated)	-13	-0.5	10038	-17	0	2	1
O=c1c(-c2ccccc2)nc(-c2ccccc2)cn1O	-2	x	3268	x	-59	x	x
Cc1nnc2c(NCCC(C)C)nc3ccccc3n12	4	2.0	3271	19	-23	9	2
Cc1nc2nc(NC(=O)c3ccco3)[nH]n2c(=O)c1C	0	3.2	5388	3	-12	11	4
O=C(CCN1CCN(c2ccc(Cl)cc2)CC1)Nc1ccccc1F	0	0.7	4767	1	-28	x	x
CS(=O)(=O)N1CCC(C(=O)Nc2ccc(Cl)c(C(F)(F)F)c2)CC1	-9	6.3	8125	4	-31	14	14
COc1ccc(C(=O)N(Cc2ccccc2)c2ccc(C)cc2)cc1S(=O)(=O)N1CCOCC1	4	1.4	6858	1	-9	-9	6
COc1ccc2[nH]c(-c3cccc(F)c3)cc(=O)c2c1	39	-0.6	3907	-1	62*	-3	-2
COc1ccc(-c2nn(-c3ccccc3)cc2/C=C2/SC(=S)N(CCC(=O)O)C2=O)cc1	1	19	2874	57	x	2	-1
CN(CC(=O)Nc1ccccc1-c1ccccc1)Cc1ccccc1Cl	1	0.3	2712	-7	-9	-5	-16
CC(C)(C)NC(=O)CN(Cc1ccc2c(c1)OCO2)C(=O)CCC(=O)Nc1nccs1	-11	-0.7	4577	-4	-16	-2	1
Cc1cccc(C)c1NC(=O)c1sc(Cl)nc1C	13	7.4	8288	-3	-13	1	2
COc1ccc(OC)c(NC(=O)COC(=O)C2CCCCC2)c1	x	1.0	3478	3	-10	10	10
Cc1noc(NC(=O)c2ccccc2Cl)c1C#N	-1	5.1	2667	-1	-18	x	x
O=C(NCc1ccncc1)c1ccc(Cn2cc(C(F)(F)F)ccc2=O)cc1	17	3.7	u	7	-27	23	9
Brc1ccc(-c2nc(-c3ccncc3)no2)cc1	-1	2.5	3029	-12	-43	-3	9
COc1ccccc1C(=O)COC(=O)Cn1c(C)csc1=O	4	3.8	5615	11	-15	1	1
O=C(CSc1nnc2c(n1)[nH]c1ccc(S(=O)(=O)N3CCOCC3)cc12)Nc1ccccc1Cl	3	7.4	4264	-2	-40	-7	-4
CCOC(=O)C1(CCOC)CCN(C(C)CCc2ccc(OC)cc2)CC1 (configuration not stated)	-9	0.9	3153	2	-21	12	3
COc1cc(/C=C/c2nc3ccccc3c(=O)n2-c2ccc(O)cc2)ccc1O	-18	29	3841	-9	-40	-1	-2
COc1cccc2c(SCC(=O)N/N=C/c3ccc(O)c(O)c3)cc(C)nc12	-4	x	4607	x	-10	x	x
C=C1CCN(C(Cc2ccccc2)C(=O)NCCCc2ccccc2)S(=O)(=O)c2ccccc21 (configuration not stated)	x	5.0	x	8	x	19	10
COc1cccc(CN(C)C(=S)Nc2cccc(C)c2)c1	-7	8.5	5487	4	-15	17	2
COc1ccc(CCCC(=O)NN=Cc2cccs2)cc1	x	2.3	x	12	x	8	12
c1ccc(CSc2nnc3ccc(-c4ccncc4)nn23)cc1	23	4.1	4633	8	-3	4	10
CCCN(CCC)CCCNC(=O)Cn1cnc2sc(C)c(S(=O)(=O)N3CCC(C)CC3)c2c1=O	5	0.6	3313	4	-6	8	2
CN(CC(=O)Nc1ccccc1Cl)C(=O)Cn1cc(C(F)(F)F)cc(Cl)c1=O	-1	3.1	3721	10	-31	-6	-7
Cc1cccc(OCCOC(=O)Nc2ccccc2)c1	-6	1.5	2540	-10	-18	10	1
O=C(NCc1ccccc1)c1ccc(CN(c2ccccn2)S(=O)(=O)c2ccccc2)cc1	11	-5.8	4287	0	-12	-5	-3
O=C(Nc1ccccc1C(=O)NCCc1ccccc1)c1cnccn1	4	2.1	5606	-5	-44	6	1
O=c1[nH]c(C2CCN(S(=O)(=O)/C=C/c3ccccc3)CC2)nc2c1nnn2Cc1ccc(F)cc1	4	-1.4	3749	2	-16	-11	17
O=C(NC1CCSC1)c1cccc(Cl)c1 (configuration not stated)	-2	4.0	3991	-2	-14	9	-3
CC(=O)NC1=NN(C(C)=O)C(C)(c2ccco2)S1 (configuration not stated)	-4	-0.5	2166	1	-19	8	-2
O=C(c1cccs1)C1C(c2ccc(Br)cc2)NC(=S)NC1(O)C(F)(F)F (configuration not stated)	5	-0.5	2550	-9	-32	1	-2
O=C(NC(=S)N1CCOCC1)c1cn(-c2ccccc2)nc1-c1ccc(F)cc1	x	0.2	3522	9	-6	-12	-8

Entries of single compounds, looked up by structure. Order of values: BJeLR viability, RN4220 kill, Bead autofluor, ugtP null kill, PrP 5UTR inh, Mtb hypoxia inh, Mtb hypoxia inh growth
CCCCn1c(O)c(C(C)=Nc2c(C)n(C)n(-c3ccccc3)c2=O)c(=O)[nH]c1=O in the list: 1, -5.9, 3472, 11, -25, x, x
Nn1c(SCC(=O)Nc2ccccc2F)nnc1-c1cccs1 in the list: 3, 0.9, 6413, 4, -4, 5, -3

Continuation.
SMILES	BJeLR viability	RN4220 kill	Bead autofluor	ugtP null kill	PrP 5UTR inh	Mtb hypoxia inh	Mtb hypoxia inh growth
O=[N+]([O-])c1c(NCc2ccccc2)cc(N2CCc3ccccc3C2)c2nonc12	-2	1.3	2184	-12	-29	x	x
O=C(Cc1cccs1)N(CC1CCCO1)C1(C(=O)NC2CCCCC2)CCCCC1 (configuration not stated)	10	-8.5	3406	7	-11	14	4
CC(C)COc1ccc(CSCCNC(=S)Nc2ccccc2)cc1	14	-13	2382	18	-16	x	x
COC(=O)[C@@]1(Cc2ccc(F)cc2)C2c3cc(C(=O)N(C)C)n(Cc4ccccn4)c3CC2CN1C(=O)c1ccccc1 (some centres not stated)	x	8.1	x	2	x	5	11
CC(C)(C#CCN1CCCC1)OCCC#N	-6	1.4	2601	4	-14	8	3
CCOC(=O)c1sc2nc(C)c3c(c2c1N)CC(C)(C)OC3	-3	2.5	3343	-8	-4	x	x
COc1ccc(Br)cc1CN1CCN(CCO)CC1	16	1.2	16101	9	0	2	-7
CC(C)CNC(=O)c1cccc(NC(=O)COc2cccc([N+](=O)[O-])c2)c1	-8	4.1	2165	1	-13	12	5
CCN(CC)S(=O)(=O)c1ccc(NC(=O)Nc2cccc(C(F)(F)F)c2)cc1	2	21	x	2	-25	2	8
COc1cc(C2OCC3C(c4ccc(OC5OC(CO)C(O)C(O)C5O)c(OC)c4)OCC23)ccc1OC1OC(CO)C(O)C(O)C1O (configuration not stated)	x	4.8	x	-2	x	5	6
N#Cc1ccc(CSc2nnc(NC(=O)c3ccc4ncsc4c3)s2)cc1	-6	2.5	4624	-7	-55	-4	7
CC(C)=CC(=O)Nc1nnc(-c2ccccc2C)s1	3	5.4	5187	-28	-71	15	11
Cc1cccc(NS(=O)(=O)c2cccc(C(=O)N3CCCC3)c2)c1	-2	4.3	4451	-2	-2	3	-4
O=C(NN=Cc1ccc(Cl)c([N+](=O)[O-])c1)c1cc(-c2ccccc2)nc2ccccc12	x	-4.5	x	-3	x	2	-3
COc1ccccc1NC(=O)Nc1ccc(F)c(F)c1	1	-5.9	2707	-13	-33	1	6
CN(C)CCN(C(=O)C1=COCCO1)c1nc2ccc(Cl)cc2s1	0	1.0	4394	-4	-13	1	3
Cc1ccc(CS(=O)(=O)c2cn(CC(=O)Nc3ccon3)c3ccccc23)cc1	0	5.4	x	-1	-9	2	6
O=[N+]([O-])c1ccc(CCNc2cccc3ccccc23)c([N+](=O)[O-])c1	6	x	2503	x	-15	x	x
COc1ccc(CNC(=O)c2cc(-c3cccs3)on2)cc1	6	1.5	15915	7	-16	8	2
CC(C)[C@@H](N)C(=O)NN=Cc1ccc2ncccc2c1	x	1.8	x	3	x	-6	-6
Cc1cc(C)cc(N(CC(=O)Nc2cc(C)ccc2C)S(=O)(=O)c2c(C)[nH]c(=O)[nH]c2=O)c1	-1	4.6	6149	8	-7	8	-9
Cc1ccc(-n2ccnc(SCC(=O)NC3CCCCC3)c2=O)cc1F	-2	2.4	x	2	-9	-6	-14
CCOC(=O)c1cc(-c2ccc(C#N)cc2)nc2c1c(C)nn2CCC#N	14	6.2	2655	-5	-5	x	x
N#Cc1cnc2cc(-c3ccccc3)nn2c1N	3	6.6	4458	1	-14	7	-7
O=C(Nc1ccc2nc(C3CC3)n(Cc3ccccc3)c(=O)c2c1)C1CC1	-2	-3.1	5856	-7	-70	-17	-13
Cc1ccc(OCC(=O)Nc2cc(C(=O)O)cc(C(=O)O)c2)cc1C	-8	5.1	4526	5	-14	1	3
CCOC(=O)c1nc2c(ccc3ccccc32)cc1C	-3	2.2	5548	7	x	0	-11
CCc1cc2c(=O)n(Cc3ccco3)c(SCC(=O)NC3CCS(=O)(=O)C3)nc2s1 (configuration not stated)	-1	8.5	4286	6	-12	-1	4
COc1ccc(CCCC(=O)Nc2ccc(F)cc2)cc1	8	7.0	2772	10	-11	18	11
